Screening results as filed in PubChem.
NS1 inh – inhibitors of influenza NS1 protein function; S. cerevisiae slowed by influenza A NS1, growth recovery by OD600; Potency, µM (highest dose often 46.1 µM), for inactives: top-dose activity, positive = more growth; 0.4% of 270,000 active; AID 2326; active means well fitted rising curve with a large enough effect; inconclusive means small, poorly fitted or top-dose-only effect; inactive means no such curve, though single readings can be large or run the other way; further: nearly all actives have a fitted effect of over 50% in size
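Compounds were scored for reversing the slow growth caused by influenza A NS1 in S. cerevisiae, measured by optical density at 600 nm. Assay medium contained 2% galactose at pH 6.0; NS1-free yeast of the same strain were the positive control.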
SARS PLpro yeast – blocks SARS-CoV papain-like protease in a yeast assay; Potency, µM (highest dose often 32.9 µM), without a hit: at the top dose activity, positive = growth rescue; 0.19% of 330,000 active; S. cerevisiae expressing SARS-CoV PLpro, growth rescue; control for the full effect not named in the record; AID 485353; active means well fitted rising curve with a large enough effect; inconclusive means small, poorly fitted or top-dose-only effect; inactive means no such curve, though single readings can be large or run the other way; further: 0% is about no effect; nearly all actives have a fitted effect of over 55% in size; growth read by luminescence after 48 h
Lassa entry inh – blocks Lassa virus binding to or entry into cells; Lassa virus pseudotype entry inhibition, cell reporter; control for the full effect not named in the record; Potency, µM (doses to about 37.9 µM), without a hit: top-dose activity change, negative = inhibition, hits mostly inhibitors; 1.2% of 300,000 active; active means well fitted inhibition curve with a large enough effect; inconclusive means small, poorly fitted or top-dose-only effect, or effect the other way; inactive means flat fitted curve, though single readings scatter; tested in HEK293 cells; further: on the % scale 0 is the no-effect control and ±100 the full control effect; nearly all actives have a fitted effect of over 50% in size; luciferase read-out
RE007 growth inh – less growth of the S. pombe RE007 Vpr strain. S. pombe RE007 Vpr strain, BacTiter-Glo ATP luminescence, 24 h; control for the full effect not named in the record. Potency, µM (highest dose often 92.2 µM), for inactives: at the highest dose activity change, negative = less growth. 0.21% of 360,000 active. AID 651644; active = well fitted falling curve with a large enough effect; inconclusive = small, poorly fitted or top-dose-only effect; inactive = no such curve, though single readings can be large or run the other way;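 further: on the % scale 0 is the no-effect control and ±100 the full control effect; nearly all actives have a fitted effect of over 50% in size; the assay follows cell death caused by Vpr and the record does not say whether a fall means rescue or toxicity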
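Fission yeast RE007 carrying one integrated HIV-1 vpr copy, seeded at OD 0.01 in PMG+AL medium with 23 nL pinned compound. Grown 24 h at 30 degrees; viability read by BacTiter-Glo luminescence after 5 min.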
StopGo reporter – FMDV 2A StopGo reporter, luciferase signal. Potency, µM (highest dose often 57.9 µM), for the others: at the highest dose signal change, negative = less light. 1.2% of 410,000 active. human cells with a luciferase reporter of 2A StopGo recoding; control for the full effect not named in the record. AID 1159524; active = well fitted falling curve with a large enough effect; inconclusive = small, poorly fitted or top-dose-only effect; inactive = no such curve, though single readings can be large or run the other way; tested in HEK293T cells; further: on the % scale 0 is the no-effect control and ±100 the full control effect; nearly all actives have a fitted effect of over 45% in size; luciferase light after 4 h
Cruzain noTriton – blocks cruzain activity in detergent-free assay; purified cruzain, Z-FR-AMC fluorescence, no detergent; P25779; 2.3% of 200,000 active; AID 1476; Potency, µM, without a hit: max response, negative = inhibition, hits mostly inhibitors;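 further: plate controls were enzyme without inhibitor for no effect and buffer without enzyme for full effect; nearly all actives have a fitted effect of over 40% in size; top concentration of the series not given in the record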
Target sequence (P25779 123-467 limits assumed): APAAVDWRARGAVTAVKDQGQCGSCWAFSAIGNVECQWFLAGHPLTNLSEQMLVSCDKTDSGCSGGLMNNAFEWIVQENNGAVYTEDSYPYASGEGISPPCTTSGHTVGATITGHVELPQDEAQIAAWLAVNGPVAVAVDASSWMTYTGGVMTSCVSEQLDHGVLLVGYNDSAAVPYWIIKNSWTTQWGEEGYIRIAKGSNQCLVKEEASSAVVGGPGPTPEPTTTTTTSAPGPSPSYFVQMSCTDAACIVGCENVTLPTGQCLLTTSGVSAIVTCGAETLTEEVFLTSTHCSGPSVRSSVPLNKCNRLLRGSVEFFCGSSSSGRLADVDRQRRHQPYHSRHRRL
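Purified cruzain at 1.5 nM, pre-incubated 15 min with compound at room temperature in 100 mM sodium acetate pH 5.5, 5 mM DTT, 0.00005% Triton X-100. Reaction started with 2 uM Z-FR-AMC; AMC fluorescence increase over 60 s gives rate.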
Marburg entry inh – Marburg virus entry inhibition; Marburg virus pseudotyped entry inhibition, cell reporter; control for the full effect not named in the record; about a third of the inactives were read at about 46 µM; AID 540276; Potency, µM (top dose mostly 37.8 µM), for inactives: top-dose activity change, negative = inhibition, usual class: inhibitors; 1.8% of 300,000 active; active = well fitted inhibition curve with a large enough effect; inconclusive = small, poorly fitted or top-dose-only effect, or effect the other way; inactive = flat fitted curve, though single readings scatter; tested in HEK293 cells; about a fifth of its hits are not listed in these tables; further: on the % scale 0 is the no-effect control and ±100 the full control effect; luciferase read-out
Cruzain Triton – blocks cruzain activity in presence of Triton detergent. Potency, µM, for the others: max response, negative = inhibition, hits mostly inhibitors. purified cruzain, Z-FR-AMC fluorescence, 0.01% Triton. 0.43% of 200,000 active. AID 1478. P25779;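 further: plate controls were neutral wells for no effect and buffer without enzyme for full effect; nearly all actives have a fitted effect of over 40% in size; top concentration of the series not given in the record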
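Purified cruzain (1.5 nM final) was preincubated with compounds for 15 min at room temperature in 100 mM sodium acetate pH 5.5, 5 mM DTT, 0.01% Triton X-100. Reaction started with 2 uM Z-FR-AMC; AMC fluorescence change over 60 s gave activity.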
The depositor's hits bear a star; ? = inconclusive; . = no result given; & = joins results of further samples; [ ] = remark or other dose. Unless noted, the call rests on the fitted dose curve; in most records, active means well fitted curve in the direction sought with a large enough effect; inconclusive means small, poorly fitted or top-dose-only effect, or another doubt; inactive means no such curve, though single readings can be large; an effect the other way counts as inactive or inconclusive. Potency means the concentration at half of the fitted maximal effect.

SMILES	NS1 inh	SARS PLpro yeast	Lassa entry inh	RE007 growth inh	StopGo reporter	Cruzain noTriton	Marburg entry inh	Cruzain Triton
CCOC(=O)C1CCCN(c2c(C(=O)c3ccc(OCC)cc3)cnc3ccccc23)C1 (configuration not stated)	.	.	.	.	?	10%	?	-3.8%
CC1(C)Cc2nc(-c3ccccc3)nc(SCC(O)CO)c2CO1 (configuration not stated)	?	0%	.	0%	-6%	.	.	.
Cc1ccc(C)c(NC(=O)CN(C)C(=O)/C=C/c2ccco2)c1	.	0%	-10%	-14%	-9%	.	0%[46.1 µM]	.
Cc1c(NC(=O)c2ccc3c4c(cccc24)CC3)c(=O)n(-c2ccccc2)n1C	?	7%	8%	-4%	.	-4%	-3%	-2.2%
Cc1ccn2c(=O)nc(SCC(=O)NCc3ccc4c(c3)OCO4)nc2c1	.	-1%	2%	2%	12%	.	-2%	.
O=c1c2ccccc2nnn1Cc1cccc2ccccc12	-2%	-4%	11%	-16%	0%	.	-14%	.
Cc1ccc(C)c(NC(=S)NCCc2ccc(S(N)(=O)=O)cc2)c1	.	.	1%	1%	-2%	.	-18%	.
CC1=NN(c2ccccc2)C(=O)/C1=C/c1ccc(-c2ccc(C)c(C(=O)O)c2)o1	.	.	6%[46.1 µM]	-19%	-23%	.	?	.
Cc1cc2cc(CCNC(=O)CC(C)(C)C)c(=O)[nH]c2cc1C	-11%	-4%	.	-9%	-9%	?	.	0.8%
COc1ccc(S(=O)(=O)N2CCN(S(=O)(=O)c3ccc4c(c3)OCCO4)CC2)cc1C	1%	4%	-19%	10%	?	-6%	-4%&17%	-9.4%
COc1cc(C(=O)Nc2nccs2)c(Br)c(OC)c1OC	8%	-7%	-16%	-6%	-14%	-23%	?	0.5%
Cc1ccc(N/C=C(\[N+](=O)[O-])S(=O)(=O)c2ccccc2)cc1	.	5%	-2%	32%	-8%	.	?	.
Cc1cc(N2CCN(c3nc4ccccc4s3)CC2)n2ncnc2n1	-57%	5%	?	-5%	11µM*	4%	?	-5.7%
COc1ccc(NC(=O)C2CC(c3ccc(OC)c(OC)c3)=NO2)cc1OC (configuration not stated)	0%	4%	1%	10%	-5%	7%	-4%	-2.4%
O=C1Nc2cc(S(=O)(=O)N3CCCC3)ccc2N2CCCC12 (configuration not stated)	13µM*	0%	-14%	-8%	-5%	?	-7%	5.5%
O=C(/C=C/c1ccco1)OCn1nnc2ccccc2c1=O	5%	-7%	5%	-11%	15%	.	12%[46.1 µM]	.
Cc1ccccc1C(=O)NC1CCN(Cc2nnnn2C(C)(C)C)CC1	2%	1%	.	19%	-17%	.	.	.
Cc1nnc(SCC(=O)N(Cc2ccccc2)C(C)C)n1-c1ccccc1	4%	8%	-21%	-2%	-6%	3%	6%	5.2%
COCCCNc1oc(/C=C/c2cc(OC)c(OC)c(OC)c2)nc1C#N	.	.	-8%[46.1 µM]	.	-3%	20µM*	-3%[46.1 µM]	25µM*
Cc1ccc(Sc2ccc(CN3CCCC3)cc2[N+](=O)[O-])cc1	4%	1%	.	-2%	-25%	.	.	.
C#CCOCCOCCOCCNc1nc(N2CCN(C(=O)Cn3cc(CCCN=C(N)N)nn3)CC2)nc(N2CCN(C(=O)[C@H](C(C)C)n3cc(CCO)nn3)CC2)n1	-14%	-27%	4%	6%	-9%	6%	22%	0.1%
C/C=C/C(=O)N1CC2(CC(c3cccc(NC(=O)/C(C)=C/C)c3)=NO2)C[C@H]1C(N)=O (some centres not stated)	-1%	1%	.	-9%	0%	.	.	.
O=C(NC12CCC(O)C(SC1)/C2=N/O)c1ccccc1 (configuration not stated)	-3%	0%	14%	-6%	13%	2%	12%	-1.8%
O=C(COC(=O)c1ccccc1-n1cnnn1)c1ccc(Br)cc1	.	1%	0%	1%	-22%	.	8%	.
COCCn1c(C)cc(O)c(C(c2ccccc2Cl)N2CCCCC2)c1=O (configuration not stated)	.	.	-3%[46.1 µM]	.	-21%	24%	.	0.1%
Cc1ccc(S(=O)(=O)n2nc(-c3ccccc3)nc2NCc2ccc(Cl)cc2)cc1	.	.	-19%[46.1 µM]	.	25%	5%	5%[46.1 µM]	-0.3%
CC1(C)Cc2cccc(OCC(=O)N3CCN(S(=O)(=O)c4ccccc4F)CC3)c2O1	2%	-9%	0%	-2%	-13%	26%	?	3.1%
COc1cccc2sc(=NC(=O)CCS(=O)(=O)c3ccc(C)cc3)n(C)c12	.	.	?	-3%	-5%	.	-6%	.
O=C(Nc1cc(Cl)ccc1N1CCOCC1)c1ccc2c(c1)OCCO2	4%	12%	-6%[46.1 µM]	-12%	-8%	.	?	.
Cc1ccc2c(c1)-c1ncc(C(=O)c3cc(Br)ccc3O)cc1CO2	0%	-2%	-12%[46.1 µM]	.	13%	.	-14%&-14%[46.1 µM]	.
O=C(COc1ccc(OCc2ccccc2)cc1)NN=C1CCCC1	.	-14%	14%	1%	9%	.	-12%[14.2 µM]	.
O=C1C2C3C=CC(CC3)C2C(=O)N1c1ccc(Br)cc1[N+](=O)[O-] (configuration not stated)	2%	0%	21%[46.1 µM]	-12%	1%	.	7%[46.1 µM]	.
O=C(CN1CCN(c2nc(-c3ccc(Cl)cc3)cs2)CC1)NCc1ccco1	-46%	-4%	7%	-3%	12%	5%	21%	-5.0%
CCOC(=O)c1ccc(Nc2c(-c3ccc(O)cc3)nc3nc[nH]n23)cc1	.	.	-23%[46.1 µM]	.	0%	11%	.	-3.6%
C/C(=N/Nc1nc(-c2ccccc2)c(CC(=O)O)s1)c1ccccc1	13%	-3%	.	-11%	-1%	.	.	.
NC(=O)C1=C[C@@H](c2csc3ccccc23)C[C@@H](OCCCCO)O1	-7%	-2%	.	-5%	-16%	.	.	.
CCOc1ccccc1C1C(C#N)=C(N)Oc2cc(N)ccc21 (configuration not stated)	?	3%	-22%	12%	-27%	-3%	-12%	-6.6%
Cc1cccc2cc(CN(Cc3cccnc3)C(=O)c3ccncc3)c(=O)[nH]c12	4%	0%	-9%	-3%	10%	1%	-3%	4.1%
N#CCSc1nc2ccccc2c(=O)n1C1CCCCC1	.	-1%	-17%	13%	?	.	-10%[46.1 µM]	.
Cc1nn(C)cc1S(=O)(=O)Nc1ncccn1	-8%	2%	25%[46.1 µM]	9%	-1%	.	2%[46.1 µM]	.
CN(C)CCn1c(=N)n(CC(O)c2ccc(Cl)c(Cl)c2)c2ccccc21 (configuration not stated)	-4%	0%	.	7%	?	.	.	.
COCCNC(=O)CN(C(=O)CCC(=O)Nc1ccccn1)c1cc(C)ccc1C	14%	12%	.	-6%	-14%	.	.	.
Cc1ccc(C(=O)Nc2ccccn2)cc1S(=O)(=O)N1CCOCC1	.	0%	5%	-21%	-6%	.	-10%	.
COc1ccc(-c2c(-c3ccccc3OC)sc3ccccc23)cc1OC	15%	-15%	.	3%	-17%	.	.	.
O=c1[nH]nc(Cc2ccc(-c3cccc(Cl)c3)o2)c2ccccc12	-5%	-6%	-8%	-3%	?	-22%	?	-3.7%
CCC(=NCCc1ccccc1)c1c(O)n(C)c(=O)n(C)c1=O	1%	-5%	.	10%	?	.	.	.
CC1CCN(CCc2nc3cc(NC(=O)Nc4ccccc4)ccc3n2C)CC1	-45%	-7%	2%	-10%	1%	-10%	?	-6.2%
N#C/C=C/C#N	.	-5%	.	3%	0%	14%	.	4.0%
CCOC(=O)C1=C(COC(=O)c2ccc(Cl)cc2[N+](=O)[O-])NC(=O)NC1C (configuration not stated)	.	0%	13%	8%	-7%	.	-12%[46.1 µM]	.
CC(C)[C@@H]1NC(=O)c2cc([N+](=O)[O-])cc(I)c2NCC[C@@H](C(N)=O)NC(=O)[C@H](CO)NC1=O	-23%	2%	1%	.	.	?	?	-11%
O=C(O)CSc1nnc(CSc2nc3ccccc3s2)n1-c1ccccc1	4%	5%	2%[46.1 µM]	11%	6%	.	4%[46.1 µM]	.
COc1ccc2nc(SCC(=O)N(C)CC(=O)Nc3ccc(F)cc3)[nH]c2c1	.	1%	3%	2%	16%	.	19%[46.1 µM]	.
Cc1cc(C)c(-c2cc(C)nc3ncnn23)c(C)c1	.	0%	?	-12%	13%	.	0%[46.1 µM]	.
CCOC(=O)N/N=C\c1ccc(OC/C=C/c2ccccc2)c(OC)c1	-21%	-2%	?	21%	1%	.	-2%	.
O=C1c2cccc3cccc(c23)C(=O)N1c1ccccn1	2%	0%	1%	-4%	-17%	.	12%	.
CCOC(=O)C1=C(C)N=c2s/c(=C/c3ccc(OCC(=O)O)cc3)c(=O)n2C1c1ccc(OC)cc1OC (configuration not stated)	4%	-6%	.	0%	-4%	.	.	.
Cc1cnc(NC(=O)CSc2nnc(N)s2)s1	-1%	1%	12%	32%	8%	.	2%[46.1 µM]	.
Cc1ccc(-c2nn(-c3ccccc3)cc2CN(C)C(=O)CCC(=O)O)cc1C	.	-2%	-16%[46.1 µM]	0%	8%	.	0%[46.1 µM]	.
O=C(NCCCn1ccnc1)C1CC2CCC1C2 (configuration not stated)	2%	0%	10%	2%	17%	1%	5%	4.2%
COc1cccc(C(=O)Nc2nnc(SCC(=O)NC3CCCC3)s2)c1	2%	1%	?	-13%	20%	.	?	.

(next part)
SMILES	NS1 inh	SARS PLpro yeast	Lassa entry inh	RE007 growth inh	StopGo reporter	Cruzain noTriton	Marburg entry inh	Cruzain Triton
NNc1ccc(S(=O)(=O)N2CCCCC2)cn1	7%	0%	.	-7%	-10%	.	.	.
COc1ccc2nc(NC(=O)c3ccc(F)cc3)sc2c1	-11%	-3%	-1%[46.1 µM]	-13%	17%	.	?	.
C(=N/Nc1cc(N2CCOCC2)nc(N2CCOCC2)n1)/c1ccccc1	-20%	-20%	?	11%	2%	-17%	2.5µM*	-12%
CCOc1ccc(OCCSc2nnnn2C2CCCCC2)cc1	-23%	-11%	-21%	3%	-22%	7%	?	-2.6%
O/N=C/c1cccn1-c1ccc(O)cc1	-3%	2%	-1%	-3%	10%	-13%	21%	3.0%
